Compound activity: PubChem BioAssay, National Center for Advancing Translational Sciences (NCATS)
NS1 inh = inhibitors of influenza NS1 protein function; S. cerevisiae slowed by influenza A NS1, growth recovery by OD600; Potency, µM (doses to about 46.1 µM), inactives show at the top dose activity, positive = more growth; 270,000 compounds, 0.4% hits; active means well fitted rising curve with a large enough effect; inconclusive means small, poorly fitted or top-dose-only effect; inactive means no such curve, though single readings can be large or run the other way; note: nearly all actives have a fitted effect of over 50% in size
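Growth recovery, yeast-based: influenza A NS1 expressed in S. cerevisiae causes slow growth, and suppressors are detected by OD600. The parent strain without NS1 is used as positive control.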
Cruzain Triton = blocks cruzain activity in presence of Triton detergent; P25779; purified cruzain, Z-FR-AMC fluorescence, 0.01% Triton; Potency, µM, inactives show max response, negative = inhibition, actives largely listed as inhibitors; 200,000 compounds, 0.43% hits; AID 1478;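 note: plate controls were neutral wells for no effect and buffer without enzyme for full effect; nearly all actives have a fitted effect of over 40% in size; top concentration of the series not given in the record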
Target sequence (P25779 123-467 limits assumed): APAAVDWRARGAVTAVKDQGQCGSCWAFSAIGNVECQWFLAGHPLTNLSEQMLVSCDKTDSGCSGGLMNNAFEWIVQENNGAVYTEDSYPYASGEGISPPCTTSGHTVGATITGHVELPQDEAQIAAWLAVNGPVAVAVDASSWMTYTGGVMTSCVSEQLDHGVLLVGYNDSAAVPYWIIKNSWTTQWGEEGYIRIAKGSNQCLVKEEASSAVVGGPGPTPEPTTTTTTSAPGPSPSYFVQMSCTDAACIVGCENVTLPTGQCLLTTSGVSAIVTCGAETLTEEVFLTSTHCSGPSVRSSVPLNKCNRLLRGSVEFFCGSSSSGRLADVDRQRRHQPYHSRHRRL
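Purified cruzain (1.5 nM final) was preincubated with compounds for 15 min at room temperature in 100 mM sodium acetate pH 5.5, 5 mM DTT, 0.01% Triton X-100. Reaction started with 2 uM Z-FR-AMC; AMC fluorescence change over 60 s gave activity.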
LASV entry inh = Lassa virus entry inhibition; 300,000 compounds, 1.2% hits; AID 540256; Lassa virus pseudotype entry inhibition, cell reporter; control for the full effect not named in the record; Potency, µM (doses to about 37.9 µM), inactives show top-dose activity change, negative = inhibition, actives largely listed as inhibitors; active means well fitted inhibition curve with a large enough effect; inconclusive means small, poorly fitted or top-dose-only effect, or effect the other way; inactive means flat fitted curve, though single readings scatter; tested in HEK293 cells; note: % is set by controls: 0 for no effect and ±100 for the full control effect; nearly all actives have a fitted effect of over 50% in size; luciferase read-out
2A StopGo = FMDV 2A StopGo reporter, luciferase signal; human cells with a luciferase reporter of 2A StopGo recoding; control for the full effect not named in the record; Potency, µM (doses to about 57.9 µM), for the others: at the top dose signal change, negative = less light; 410,000 compounds, 1.2% hits; AID 1159524; active = well fitted falling curve with a large enough effect; inconclusive = small, poorly fitted or top-dose-only effect; inactive = no such curve, though single readings can be large or run the other way; tested in HEK293T cells; note: % is set by controls: 0 for no effect and ±100 for the full control effect; nearly all actives have a fitted effect of over 45% in size; luciferase light after 4 h
SARS PLP yeast = inhibitors of SARS-CoV papain-like protease in yeast; S. cerevisiae expressing SARS-CoV PLpro, growth rescue; control for the full effect not named in the record; 330,000 compounds, 0.19% hits; Potency, µM (doses to about 32.9 µM), for the others: top-dose activity, positive = growth rescue; active means well fitted rising curve with a large enough effect; inconclusive means small, poorly fitted or top-dose-only effect; inactive means no such curve, though single readings can be large or run the other way; note: 0% is about no effect; nearly all actives have a fitted effect of over 55% in size; growth read by luminescence after 48 h
MARV entry inh = inhibitors of Marburg virus binding or cell entry; AID 540276; 300,000 compounds, 1.8% hits; Potency, µM (series often up to 37.8 µM), for inactives: top-dose activity change, negative = inhibition, usual class: inhibitors; Marburg virus pseudotyped entry inhibition, cell reporter; control for the full effect not named in the record; about a third of the inactives were read at about 46 µM; active = well fitted inhibition curve with a large enough effect; inconclusive = small, poorly fitted or top-dose-only effect, or effect the other way; inactive = flat fitted curve, though single readings scatter; tested in HEK293 cells; about a fifth of its hits are not listed in these tables; note: % is set by controls: 0 for no effect and ±100 for the full control effect; luciferase read-out
Cruzain noTriton = cruzain (T. cruzi) inhibition without detergent; P25779; purified cruzain, Z-FR-AMC fluorescence, no detergent; Potency, µM, for the others: max response, negative = inhibition, actives largely listed as inhibitors; 200,000 compounds, 2.3% hits; AID 1476;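 note: plate controls were enzyme without inhibitor for no effect and buffer without enzyme for full effect; nearly all actives have a fitted effect of over 40% in size; top concentration of the series not given in the record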
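Purified cruzain at 1.5 nM, pre-incubated 15 min with compound at room temperature in 100 mM sodium acetate pH 5.5, 5 mM DTT, 0.00005% Triton X-100. Reaction started with 2 uM Z-FR-AMC; AMC fluorescence increase over 60 s gives rate.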
RE007 growth inh = less growth of the S. pombe RE007 Vpr strain | AID 651644 | Potency, µM (doses to about 92.2 µM), for the others: at the top dose activity change, negative = less growth | 360,000 compounds, 0.21% hits | S. pombe RE007 Vpr strain, BacTiter-Glo ATP luminescence, 24 h; control for the full effect not named in the record; active = well fitted falling curve with a large enough effect; inconclusive = small, poorly fitted or top-dose-only effect; inactive = no such curve, though single readings can be large or run the other way;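 note: % is set by controls: 0 for no effect and ±100 for the full control effect; nearly all actives have a fitted effect of over 50% in size; the assay follows cell death caused by Vpr and the record does not say whether a fall means rescue or toxicity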
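Fission yeast strain RE007, carrying one chromosomally integrated HIV-1 vpr copy, was seeded at OD 0.01 in PMG+AL medium with 23 nL pinned compound. After 24 h at 30 °C and 99% humidity, viability was read by BacTiter-Glo luminescence.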
* = called active by the depositor; ? = inconclusive; . = not tested or not shown; & = joins results of further samples; [ ] = dose if it differs, or a comment. Unless noted, calls come from the whole dose curve; as a rule, active = well fitted curve in the direction sought with a large enough effect; inconclusive = small, poorly fitted or top-dose-only effect, or another doubt; inactive = no such curve, though single readings can be large; an effect the other way counts as inactive or inconclusive. Potency is the fitted concentration of half-maximal effect.

SMILES	NS1 inh	Cruzain Triton	LASV entry inh	2A StopGo	SARS PLP yeast	MARV entry inh	Cruzain noTriton	RE007 growth inh
CC(=O)Nc1ccc(NC2=Nc3ccccc3N3C2=Nc2c(c(C)nn2-c2ccccc2)C3c2ccccc2)cc1 (stereo not given)	11%	0.4%	?	10µM*	?	?	2%	2%
COC(=O)C1=CN(Cc2ccc(OC)cc2)C=C(C(=O)OC)C1c1cccs1	11%	.	?	-16%	1%	?	.	16%
Cc1ccc(C(=O)CSc2nc3cc(S(=O)(=O)N4CCOCC4)ccc3o2)cc1	-3%	1.2%	-19%	-15%	5%	-17%	12%	6%
Cc1cccc(/C(N)=N/OC(=O)N2c3ccccc3Sc3ccccc32)c1	-155%	1.8%	-25%	-26%	-36%	-24%[46.1 µM]	-6%	-29%
CCOC(=O)c1ccc2[nH]c(C)c(CN3CCN(C)CC3)c(=O)c2c1	?	.	0%	-20%	.	0%&0%	.	-4%
Cc1cccc(CCNC(=O)C2CCN(S(=O)(=O)c3c(C)noc3C)CC2)c1	0%	-1.8%	?	.	-3%	2%	-8%	-2%
Cc1cc(NS(=O)(=O)c2ccc(NC(=O)CN3C(=O)c4ccccc4C3=O)cc2)nc(C)n1	-7%	6.4%	-2%	61%[activator]	1%	10%	4%	15%
Cc1ccc(CC(=O)Nc2cc([N+](=O)[O-])ccc2F)cc1	-5%	.	.	-15%	1%	.	.	-7%
Cc1ccccc1CSc1nn2c(=O)c(C)nnc2s1	.	.	1%	-29%	-3%	-6%[46.1 µM]	.	9%
CCC(C)(C)NC(=O)CN(C(=O)CCC(=O)Nc1cc(C)ccn1)c1ccc2c(c1)OCO2	-17%	4.4%	?	-14%	7%	?	12%	26%
Cc1ccc(/C=N/NC(=O)c2nnn(-c3nonc3N)c2CN(C)c2ccccc2)s1	6%	.	.	4%	-8%	.	.	4%
COCCNC(=O)C(c1ccc(O)cc1)N(C(=O)CCC(=O)Nc1nccs1)c1cccc(C)c1 (stereo not given)	-1%	.	-4%	28%	-1%	?	.	.
O=[N+]([O-])c1ccc(Cl)c(/C=N/N2CCN(c3ccccc3)CC2)c1	-13%	3.4%	1%	?	-2%	-24%	?	-4%
Cc1cc(C(F)F)n2ncc(C(=O)NCc3ccccc3F)c2n1	3%	-3.5%	-3%	10%	1%	?	-5%	-1%
CCCc1ccccc1OCCNS(=O)(=O)c1cc2c(cc1C)OCC(=O)N2	-11%	.	?	-17%	-11%	?	.	-21%
COc1cccc(-n2c(=O)c3c(C)c(C(=O)N(C)C)sc3n(Cc3ccc(F)cc3Cl)c2=O)c1	.	1.2%	-18%[46.1 µM]	?	.	.	5%	.
CCOc1ccc(CNC(=O)CCS(=O)(=O)c2ccc3c(c2)oc(=O)n3C)cc1	9%	-1.1%	27%[46.1 µM]	-1%&-23%	-1%	.	-10%	13%
COc1ccc(NC(=O)C2CCN(S(=O)(=O)c3cccc4cccnc34)CC2)cc1	-13%	3.9%	.	?	5%	.	-6%	1%
CCOC(=O)c1cc(-c2csc(N/N=C/c3ccccc3Cl)n2)on1	0%	.	-1%	-6%	1%	1%	.	-17%
COCCN1CN=C(NS(=O)(=O)c2ccc(C)cc2)NC1	-4%	0.9%	?	-7%&-18%	-2%	7%&7%[46.1 µM]	20%	-6%

The list goes on (5 carried over from the part before).
SMILES	NS1 inh	Cruzain Triton	LASV entry inh	2A StopGo	SARS PLP yeast	MARV entry inh	Cruzain noTriton	RE007 growth inh
COc1cccc(-n2c(=O)c3c(C)c(C(=O)N(C)C)sc3n(Cc3ccc(F)cc3Cl)c2=O)c1	.	1.2%	-18%[46.1 µM]	?	.	.	5%	.
CCOc1ccc(CNC(=O)CCS(=O)(=O)c2ccc3c(c2)oc(=O)n3C)cc1	9%	-1.1%	27%[46.1 µM]	-1%&-23%	-1%	.	-10%	13%
COc1ccc(NC(=O)C2CCN(S(=O)(=O)c3cccc4cccnc34)CC2)cc1	-13%	3.9%	.	?	5%	.	-6%	1%
CCOC(=O)c1cc(-c2csc(N/N=C/c3ccccc3Cl)n2)on1	0%	.	-1%	-6%	1%	1%	.	-17%
COCCN1CN=C(NS(=O)(=O)c2ccc(C)cc2)NC1	-4%	0.9%	?	-7%&-18%	-2%	7%&7%[46.1 µM]	20%	-6%
O=C(Cn1c(=O)nc(-c2ccccc2)c2cc(Cl)ccc21)N1CCN(c2ccccc2F)CC1	.	0.5%	?	5%	.	.	-4%	.
Nc1cc(Cl)ccc1C(=O)OCC(=O)N1CCCC1	-23%	.	11%	23%	3%	-2%[46.1 µM]	.	1%
COC(=O)[C@H](CCSC)NC(=O)Nc1cc(C)ccc1C	?	2.2%	3%	-9%	-4%	-1%	0%	-26%
CCN(C(=O)CSc1nncn1-c1ccccc1)c1c(N)n(Cc2ccccc2)c(=O)[nH]c1=O	10%	-1.4%	0%	-16%	7%	7%	3%	-19%
CCCc1noc2c1C(c1cc(Br)ccc1F)C(C#N)=C(N)N2 (stereo not given)	-1%	.	.	-16%	0%	.	.	9%
O=C(c1cccc(F)c1)N1CCN(c2cccc(C(F)(F)F)c2)CC1	-17%	-12%	13%	-13%	-3%	?	16%	-17%
CCc1ccc(-c2cc(C)no2)cc1S(=O)(=O)N1CCN(c2ccccn2)CC1	-38%	.	-28%[46.1 µM]	?	-3%	?	.	-14%
O=C(NCc1ccco1)C1CCN(C(=O)c2ccc(Cl)cc2Cl)CC1	20%	.	-14%[46.1 µM]	8%	-1%	4%[46.1 µM]	.	6%
COc1ccccc1Nc1c2c(nc3ccc(NC(=O)/C=C/c4cccc(OC)c4OC)cc13)CCCC2	.	-22%	-20%[46.1 µM]	-27%	.	?	?	.
CC(C)(C)c1ccc(OCC(=O)N/N=C/C2CC=CCC2)cc1 (stereo not given)	.	.	?	-5%	-5%	-25%	.	1%
CCOC(=O)c1cc(C#N)c(SCc2cccc3ccccc23)nc1C	10%	1.3%	-14%	0%	-1%	-3%	?	10%
Cc1c(OCC(=O)NCC(O)c2ccccc2)ccc2c3c(c(=O)oc12)CCC3 (stereo not given)	-12%	.	.	-27%	5%	.	.	0%
CC1(C)Cc2cccc(OCC(=O)N3CCN(c4ccccc4Cl)CC3)c2O1	.	.	?	?	-10%	7%	.	-2%
COc1ccc2cc(CNc3ccc(OC)c(OC)c3)c(=O)n(CC(=O)Nc3ccc(C)cc3)c2c1	.	-5.9%	0%[46.1 µM]	-17%	.	.	?	.
Cc1ccc(NC(=O)c2cc(NC(=O)CCC(=O)O)ccc2N2CCCCC2)cc1	21%	-11%	19%	.	1%	-1%	?	4%
CS(=O)(=O)N1CCN(c2ccc([N+](=O)[O-])cc2C(F)(F)F)CC1	0%	.	-24%	-13%	0%	-19%[46.1 µM]	.	7%
O=C1[C@@H]2C(Cc3ccc(O)cc3)NC3(C(=O)Nc4ccc(F)cc43)[C@@H]2C(=O)N1c1ccc(F)cc1 (stereo not given in full)	-3%	-4.7%	3%	-1%	-2%	3%	6%	2%
O=c1nc2ccccc2c(NS(=O)(=O)c2ccccc2)n1-c1ccccc1	-12%	2.8%	-28%	2%	9%	-29%[46.1 µM]	-13%	33%
O=C1C(=O)N(Cc2cccnc2)C(c2cccc([N+](=O)[O-])c2)/C1=C(\O)c1ccc2c(c1)OCCO2 (stereo not given)	2%	.	.	-15%	0%	.	.	-6%
O=C(Cc1ccccc1)c1nnc(-c2ccccc2)o1	7%	.	-2%	22%	-3%	?	.	-6%
Cc1cccc(N2CCN(C(=O)Cn3cnc4c3c(=O)n(C)c(=O)n4C)CC2)c1C	3%	-3.5%	?	0%	-18%	-12%	-4%	-11%
Cc1ccccc1Cn1cc(C)c(=O)[nH]c1=O	2%	.	17%[46.1 µM]	6%	0%	14%[46.1 µM]	.	-3%
CN(CC(=O)Nc1ccc(N2CCOCC2)cc1)C(=O)CC(c1ccccc1)c1ccccc1	.	.	-13%	0%	-2%	-5%	.	-4%
Cc1cccc(C)c1NC(=O)COC(=O)C1C2CC3OC(=O)C1C3C2 (stereo not given)	11%	.	.	11%	11µM*	0%[46.1 µM]	.	-4%
O=C(Nc1cccc(S(=O)(=O)NC2=NCCC2)c1)c1ccc(F)cc1F	.	.	-3%	-2%	1%	0%[46.1 µM]	.	6%
CC1=C(C(N)=O)C(c2ccncc2)n2nc(-c3ccccc3Cl)nc2N1 (stereo not given)	13%	-0.5%	0%	?	8%	-1%	-1%	22%
CCCCn1c(N)c(N(CC)C(=O)c2c(C)noc2C)c(=O)[nH]c1=O	.	.	4%[46.1 µM]	-8%	17%	9%[46.1 µM]	.	12%
CCN(CC)c1ccc(NC(=O)c2ccc(Br)o2)c(C)c1	-2%	3.0%	11%[14.3 µM]	13%	-2%	-21%	0%	7%
CCOc1ccccc1N(CC(=O)NCC1CCCO1)C(=O)CCC(=O)Nc1ccccn1 (stereo not given)	-5%	1.7%	-3%	-10%	9%	13%	-4%	-1%
C/C(=N\NC(=O)c1nnn(-c2nonc2N)c1CN1CCOCC1)c1ccc(CC(C)C)cc1	-4%	.	22%[46.1 µM]	-13%	1%	15%[46.1 µM]	.	-3%
CC(=O)Nc1cccc(OCCCNC(=O)c2cccc3ccccc23)c1	3%	.	9%[46.1 µM]	0%	0%	?	.	1%
COc1ccc(C2CC(=O)C(C=NCCN3CCN(C(C)=O)CC3)=C(O)C2)cc1 (stereo not given)	1%	-2.6%	15%	.	6%	3%	-6%	0%
COc1ccc(Cl)cc1CNCCCSc1ncccn1	7%	.	?	-22%	-1%	0%	.	10%
Nc1ccc(S(=O)(=O)NC(=O)c2ccccc2)cc1	12%	0.2%&1.2%&1.4%	-2%	-20%&-1%	13%	7%	6%&13%&1%	-5%
Cc1ccccc1Nc1nc(N)nc(CN2C(=O)NC3(CCCCC3C)C2=O)n1 (stereo not given)	2%	-1.6%	-22%	1%	4%	-10%	-4%	5%
